Screens (PubChem)
Rango release inh = qHTS Assay for Inhibitors of RanGTP induced Rango (Ran-regulated importin-beta cargo) - Importin beta complex dissociation; Snurportin-1 (Homo sapiens) + GTP-binding nuclear protein Ran (Homo sapiens) + Importin …; Biochemical FRET Rango-importin beta, RanGTP-induced dissociation; Potency, µM (doses to about 46.1 µM), inactives show at the top dose activity change, negative = inhibition; hit rate 0.071% among 340,000; active means falling FRET ratio curve, often poorly fitted, with flat reads before Ran was added; inconclusive means other falling curves, or compound fluorescence or quenching; inactive means flat or rising ratio curve;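 note: potency is the fitted concentration of half-maximal effect; % of control where 0% means no effect; nearly all actives have a fitted effect of over 45% in size; -100% = wells without RanGTP and RCC1; the record marks most hits as doubtful in a second field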
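Recombinant Rango FRET biosensor (EYFP–snurportin 1 IBB–cerulean CFP10) at 0.1 uM premixed with 0.25 uM importin beta in PBS, 1 mM DTT, 0.02% Tween-20, 0.1% BSA. Compound added 5 min; RanGTP-RCC1 (0.6 uM Ran, 2 mM GTP, 0.2 uM RCC1) then triggers release, read at 45 min.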
miR-21 FLuc = qHTS Assay for Modulators of miRNAs and/orActivators of miR-21. 340,000 tested, under 10 active. HeLa miR-21 FLuc reporter, luciferase, 48 h. AID 2288, 2010. Potency, µM (series often up to 38.3 µM), for inactives: at the highest dose reporter change, positive = more light; active = well fitted rising curve with a large enough effect; inconclusive = small, poorly fitted or top-dose-only effect; inactive = no such curve, though single readings can be large or run the other way;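 note: % of control where 0% means no effect; miR-21 action dims this reporter so a rising signal means less miR-21 action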
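HeLa cells endogenously expressing miR-21, stably carrying CMV-driven firefly luciferase with a downstream miR-21 binding site, 2000 cells/well. Titrations up to approximately 40 uM, 48 hours; luciferase luminescence read.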
Rango-impB inh = qHTS Assay for Inhibitors of Rango (Ran-regulated importin-beta cargo) - Importin beta complex formation; Potency, µM (doses to about 92.2 µM), without a hit: at the highest dose inhibition of complex formation; Rango CFP/YFP FRET sensor + importin beta, 45 min; Importin subunit beta-1 (Homo sapiens), Q14974; hit rate 0.031% among 340,000; active = rising FRET ratio curve, often small or poorly fitted; inconclusive = mostly compound fluorescence or quenching in the first reads; inactive = flat curves in all reads;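 note: potency is the fitted concentration of half-maximal effect; 0% = DMSO wells and 100% = buffer wells lacking importin beta; nearly all actives have a fitted effect of over 15% in size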
Target sequence (Q14974 whole entry, looked up): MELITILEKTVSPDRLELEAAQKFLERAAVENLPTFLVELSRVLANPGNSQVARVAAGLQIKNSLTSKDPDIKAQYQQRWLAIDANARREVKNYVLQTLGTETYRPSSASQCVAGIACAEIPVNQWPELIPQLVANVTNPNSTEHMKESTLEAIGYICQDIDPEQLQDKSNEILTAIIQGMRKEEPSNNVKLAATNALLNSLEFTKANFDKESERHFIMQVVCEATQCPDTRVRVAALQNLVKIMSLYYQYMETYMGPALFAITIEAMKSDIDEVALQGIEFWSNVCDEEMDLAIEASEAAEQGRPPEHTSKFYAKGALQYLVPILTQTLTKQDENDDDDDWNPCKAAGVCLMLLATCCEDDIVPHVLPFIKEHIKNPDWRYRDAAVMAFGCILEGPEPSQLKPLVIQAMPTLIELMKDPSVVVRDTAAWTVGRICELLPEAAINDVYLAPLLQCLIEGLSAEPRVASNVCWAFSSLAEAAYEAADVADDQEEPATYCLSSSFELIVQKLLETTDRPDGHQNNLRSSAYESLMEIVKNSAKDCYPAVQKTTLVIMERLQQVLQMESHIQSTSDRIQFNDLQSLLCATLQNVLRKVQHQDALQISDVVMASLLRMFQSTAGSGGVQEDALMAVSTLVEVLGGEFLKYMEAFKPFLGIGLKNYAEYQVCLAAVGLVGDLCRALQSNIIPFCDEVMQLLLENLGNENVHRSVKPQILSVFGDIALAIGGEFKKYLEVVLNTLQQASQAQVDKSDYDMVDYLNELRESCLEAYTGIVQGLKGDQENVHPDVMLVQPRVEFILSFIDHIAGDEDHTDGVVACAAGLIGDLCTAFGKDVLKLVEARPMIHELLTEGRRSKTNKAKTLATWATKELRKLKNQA
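FRET biosensor Rango (snurportin 1 IBB between N-terminal EYFP and C-terminal Cerulean), 50 nM in PBS/1 mM DTT/0.02% Tween-20/0.1% BSA, preincubated 5 min RT with compound; 0.125 microM importin beta added, 45 min RT, CFP/YFP FRET ratio read.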
GLA inh pH 4.5 = qHTS Assay for Inhibitors of Human alpha-Galactosidase at pH 4.5; 230,000 tested, under 10 active; Alpha-galactosidase A (Homo sapiens), P06280; activity change, negative = inhibition, % at 105 µM; purified enzyme, 4-MU-alpha-Gal fluorescence, pH 4.5; AID 1467, 2008; inconclusive = small, poorly fitted or top-dose-only inhibition, or a rising curve; inactive = flat fitted curve, though single readings scatter; no compound was filed as active;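 note: 0% = full activity with enzyme and -100% = basal without enzyme; dose as in the result columns while the protocol names 77 µM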
The depositor's hits bear a star; u = inconclusive; x = no result given. An excerpt. The share of hits here may be higher or lower than overall.

SMILES	Rango release inh	miR-21 FLuc	Rango-impB inh	GLA inh pH 4.5
Cc1ccc(S(=O)(=O)N2CCN(C(=O)CSc3nnc(C)s3)C2)cc1	-15.1%	5.4%	-0.7%	2.5
CCCCC(CC)CNCc1cccn1CCN1CCOCC1 (centres undefined)	-7.1%	-0.1%	-0.9%	x
COC(=O)c1c(-c2ccc(OC)cc2)sc2ccc(N3CCOCC3)cc12	0.7%	x	-1.1%	x
Clc1ccc(OCc2nnc(SCc3nnc(-c4ccccc4)o3)o2)c(Cl)c1	-15.2%	-28.6%	1.4%	3.7
Cc1ccc(CNC(=O)C23CN(Cc4ccccc4)CC2C(c2ccc([N+](=O)[O-])cc2)=NO3)cc1 (centres undefined)	1.5%	4.9%	1.6%	-8.6
CCOC(=O)c1cccc(OS(=O)(=O)Cc2ccccc2)c1	u	x	0.8%	x
COC(=O)c1ccccc1NC(=O)C1CCN(C(=O)c2cc(OC)c(OC)c(OC)c2)CC1	6.7%	-13.9%	u	-5.1
Cn1c(=O)n(C)c2cc([N+](=O)[O-])c(N3CCN(C(=O)c4ccccc4)CC3)cc21	24.2%	-3.7%	2.7%	-2.6
CCOC(=O)c1c(NC(=O)CSc2nccn2C)sc(C(=O)NC)c1C	-10.3%	x	0.3%	x
Cc1ccccc1NC(=O)Nc1c(C)n(C)n(-c2ccccc2)c1=O	-9.9%	-4.1%	-2.4%	x
O=C(c1cccc(F)c1)N1CCN(CC2CC3C=CC2C3)CC1 (centres undefined)	22.2%	-4.4%	6.6%	2.4
CN(CC(=O)Nc1ccccc1C(F)(F)F)C(=O)c1ccc2c(=O)n3c(nc2c1)CCC3	2.3%	x	-1.9%	x
CCN(CC)Cc1nc2c(c(=O)[nH]1)C(CC)(CC)Cc1ccccc1-2	1.2%	0.3%	-0.1%	x
CCCC1(c2ccccc2)NC(=O)N(CC(=O)NCC2COc3ccccc3O2)C1=O (centres undefined)	11.3%	x	-2.8%	x
O=C(C1CCCN1C(=O)c1cccs1)N1CCc2ccccc21 (centres undefined)	-15.6%	-8.6%	-2.2%	-5.7
Cc1cc(C)c(C)c(C(=O)CSc2nnc(-c3ccc4[nH]c(C)c(C)c4c3)o2)c1C	-1.6%	-1.1%	0.1%	-1.3
Cc1cc2ncn(C3CC(O)C(CO)O3)c2cc1C (centres undefined)	-12.1%	x	-0.2%	x
O=S(=O)(c1cccc(-c2n[nH]c(=S)n2-c2ccc(OC(F)(F)F)cc2)c1)N1CCOCC1	7.9%	x	1.5%	x
CCOC(=O)c1cn(Cc2ccccc2)c2cc(C)nn2c1=O	-4.3%	-4.6%	-2.5%	-11.3
O=C(Cn1nc(C(F)(F)F)c2c1CCCCC2)N1CCOCC1	-6.8%	-1.4%	3.6%	-2.3
COc1ccc(-c2nn(CCC(=O)O)cc2/C=C2\SC(N)=NC2=O)cc1OC	-15.2%	-4.8%	2.0%	-3.1
COc1cc(C(=O)Nc2nnc(Cc3ccccc3)s2)cc(OC)c1OC	-5.8%	11.8%	1.0%	x
CC(=O)N1c2ccc(S(=O)(=O)N3CCCC3)cc2CC1C(=O)NCc1ccc(OC(C)C)cc1 (centres undefined)	-8.3%	-1.5%	-2.4%	x
CC1CCCCN1CC(=O)Nc1ccc2c(c1)OC(F)(F)O2 (centres undefined)	-12.2%	0.6%	0.9%	-0.5
CC1(C)CC(=O)C2=C(C1)NC(=O)CC2c1cc(F)ccc1F (centres undefined)	25.5%	-4.4%	3.2%	4.9
Cn1c(CSCc2ccc(Cl)cc2)nnc1SCC(=O)Nc1nc2ccccc2s1	-10.2%	-0.5%	-0.3%	-3.3
O=C(CCNc1ccc(Cl)cc1)c1cccs1	7.5%	-43.9%	-2.0%	-10.6
[O-]/[N+](=C\c1ccc(OC(F)F)cc1)c1ccccc1	20.5%	-11.3%	-5.5%	-0.4
N#Cc1ccc(Oc2ccc(S(=O)(=O)N3CCCC3)cn2)cc1	3.5%	x	-2.6%	x
CC1CC(=O)Nc2ccccc2N1S(=O)(=O)c1ccc(C(F)(F)F)cc1 (centres undefined)	-6.2%	1.3%	3.2%	x
CCOC(=O)CCN(Cc1cccs1)S(=O)(=O)c1ccc(F)cc1	-4.4%	-2.6%	4.5%	2.8
Cc1ccc(CNC(=O)CN2C(=O)NC(C)(c3ccccc3Cl)C2=O)cc1 (centres undefined)	-4.8%	3.5%	-1.7%	x
O=C(NCCc1ccccc1)c1ccc(NS(=O)(=O)c2ccc3[nH]c(=O)[nH]c3c2)cc1	-9.8%	x	-2.7%	x
CCCCC(=O)O	-1.6%	x	0.3%	x
COC(=O)Cc1cnc(NC(=O)C2C3CCC(C3)C2C(=O)O)s1 (centres undefined)	-11.8%	2.1%	0.8%	4.7
O=C(NCCN1CCNC1=O)C1CCC(=O)N(CCc2ccc(Cl)cc2)C1 (centres undefined)	11.1%	-11.1%	0.8%	x
Cc1[nH]n(-c2ccc(F)cc2)c(=O)c1C=Nc1ccc(S(=O)(=O)N(C)C)cc1	16.0%	-0.4%	-1.8%	-4.7
CCOC(=O)C1(Cc2ccccc2)NC(c2ccccc2F)C2C(=O)N(CC)C(=O)C21 (centres undefined)	-5.4%	17.9%	-2.0%	11.3
O=C(c1cccc(F)c1)N1CCN(c2ccc([N+](=O)[O-])c(N3CCCCC3)c2)CC1	u	10.5%	0.2%	u
COc1ccc(-n2c(=O)cc(N3CCN(c4ccccc4)CC3)[nH]c2=O)cc1	-4.8%	-3.5%	0.3%	4.5
O=C(c1ccc2nsnc2c1)N1CCN(c2ccc([N+](=O)[O-])cc2)CC1	-11.8%	-1.3%	0.3%	x
O=C(Oc1cc(Cl)ccc1Cl)c1ccc(N2CCOCC2)c([N+](=O)[O-])c1	41.6%	1.1%	-4.6%	-12.3
CSC(=O)NC(=O)NC(=O)c1ccc([N+](=O)[O-])cc1	4.6%	-3.8%	4.4%	-1.2
C=CCN1C(=O)C2C(C(=O)NC3CCCC3)C3(C)C=CC2(O3)C1C(=O)NC1CCCC1 (centres undefined)	-12.7%	8.0%	1.9%	x
O=C(O)CCc1ccc(-c2ccccc2)n1NC(=O)c1sc2ccccc2c1Cl	15.1%	-1.1%	-2.3%	-7.0
CCSc1nnc(N2C(=O)C(O)=C(C(=O)c3ccco3)C2c2cccc(OC)c2)s1 (centres undefined)	-28.2%	-22.5%	u	x
CCOC(=O)c1cccc(NC(=O)COc2nsnc2N2CCOCC2)c1	22.3%	10.7%	0.2%	x
O=C(CSCc1c(F)cccc1Cl)NCc1cccnc1	-14.8%	-13.7%	0.8%	-4.0
CC1(C)C(=O)OC(c2cccn2-c2cccc([N+](=O)[O-])c2)C2(CCCCC2)C1=O (centres undefined)	x	0.3%	x	-2.6
O=C(NCc1ccccc1)C(=O)Nc1cccc(C(=O)O)c1	-4.1%	-69.1%	-2.6%	-0.4
COc1ccc(N2CCN(C(=O)CCNS(=O)(=O)c3ccc(Br)s3)CC2)cc1	u	10.8%	-0.8%	-12.9
CCOC(=O)C1C(C(=O)OC)=C(c2ccc(F)cc2)c2ccccc2N1S(=O)(=O)C(F)(F)F (centres undefined)	1.4%	x	-0.9%	-7.7
COc1ccc2[nH]c3ccccc3c2c1	0.3%	-25.1%	0.6%	3.2
COc1ccc(C)cc1N(CC(N)=O)S(=O)(=O)c1ccc(C)cc1	-17.1%	1.2%	u	5.6
CCCN(CCC)CCNC(=O)c1cc2c(=O)n(CC)c3ccccc3c2s1	21.5%	-0.2%	0.1%	-12.7
Cc1ccc2nc(SCC(=O)Nc3ncccn3)[nH]c2c1	-6.6%	-3.3%	-6.4%	-1.2
COc1cc(/C=N/NC(=O)NC23CC4CC(CC(C4)C2)C3)ccc1O	3.3%	-17.5%	1.9%	x
CC(C)c1nc2c(c(=O)c3ccccc3n2C)c(=O)n1CCc1ccccc1	-8.8%	0.2%	-1.4%	-6.6
CC(=O)c1ccc(N2CCN(S(=O)(=O)c3ccc4c(c3)CC(C)N4C(=O)C3CC3)CC2)cc1 (centres undefined)	11.1%	0.5%	2.1%	x
Cc1cccc(C)c1OCC(O)CNC(C)(C)C (centres undefined)	1.0%	-1.8%	5.9%	-4.1
(listing goes on)
SMILES	Rango release inh	miR-21 FLuc	Rango-impB inh	GLA inh pH 4.5
CC1=CC(=O)Nc2ccccc2S1	u	x	u	x
Cc1ccc(OCCNC(=O)/C=C/c2ccco2)cc1C	-11.8%	-2.7%	-0.1%	5.9
Cc1ccc(-c2csc3ncn(CC(=O)N4CCOCC4)c(=O)c23)cc1C	23.6%	-10.3%	1.4%	-4.7
O=C(O)CCCNc1ccc([N+](=O)[O-])c(NCCCC(=O)O)n1	-9.3%	-1.3%	-1.3%	-8.3
Cc1oc2c(O)c(O)ccc2c(=O)c1-c1cnn(-c2ccccc2)c1	-9.5%	26.1%	0.1%	1.7
CC1=NN(C(N)=S)C(=O)C1N=Nc1ccc(C)cc1C (centres undefined)	x	-67.0%	x	-4.5
C=CCn1c(C)cc(C(=O)COc2ncnc3sccc23)c1C	-1.6%	-10.0%	-4.2%	-1.0
O=C(c1ccc(-c2cc3ccccc3oc2=O)cc1)N1CCN(c2ccc(Cl)cc2[N+](=O)[O-])CC1	5.1%	-4.6%	0.2%	-13.5
N#Cc1cccn1-c1nccc(-c2cccs2)n1	-1.2%	-30.9%	-5.5%	-0.2
Cc1cc(=O)[nH]c(NN=C2CCC(C(C)(C)C)CC2)n1 (centres undefined)	0.4%	-13.2%	-0.6%	10.1
Cc1cccc(Cc2nnc(CCC(=O)N3CCCCC3c3nccs3)o2)c1 (centres undefined)	0.1%	-9.1%	3.6%	4.7
Cn1cc(S(=O)(=O)CC(=O)Nc2ccc(Br)cc2)c2ccccc21	9.1%	-12.8%	0.0%	-3.0
C[C@H](CO)N1C[C@H](C)[C@@H](CN(C)Cc2ccc(C(=O)O)cc2)Oc2c(NC(=O)Cc3ccccc3)cccc2C1=O	-15.7%	x	-0.3%	x
CC(C)CC(C(=O)OCC(=O)Nc1cccc(Cl)c1)N1C(=O)C2CC=CCC2C1=O (centres undefined)	-18.1%	-1.5%	2.1%	0.0
Cc1oc2c(CN3CCCCC3C)c(O)ccc2c(=O)c1-c1ccccc1 (centres undefined)	-6.3%	-0.6%	u	x

An excerpt from above, reduced to Rango-impB inh:
Molecule	Rango-impB inh
Cc1cc(=O)[nH]c(NN=C2CCC(C(C)(C)C)CC2)n1 (centres undefined)	-0.6%
C[C@H](CO)N1C[C@H](C)[C@@H](CN(C)Cc2ccc(C(=O)O)cc2)Oc2c(NC(=O)Cc3ccccc3)cccc2C1=O	-0.3%

The list continues.
SMILES	Rango release inh	miR-21 FLuc	Rango-impB inh	GLA inh pH 4.5
Cc1cc(S(=O)(=O)Nc2ccc(N3CCOCC3)cc2)ccc1Br	3.2%	-3.9%	0.7%	x
CCCN(CC(=O)Nc1ccc(F)c(F)c1F)C(=O)c1ccc(=O)n(Cc2ccccc2)n1	-6.7%	x	4.1%	x
Cc1sc2ncnc(N[C@@H](Cc3ccccc3)C(=O)O)c2c1C	0.7%	-3.3%	-0.5%	x
CCc1nonc1NC(=O)c1oc2c(C)c(C)ccc2c1C	-2.9%	-4.3%	0.3%	x
COc1ccc(C(=O)NC2CCCc3ccccc32)cc1OC1CCN(C(C)=O)CC1 (centres undefined)	9.8%	14.7%	1.0%	x
CCOC(=O)Cn1nc(C)c(NC(=O)c2ccc(Cl)c([N+](=O)[O-])c2)c1C	25.6%	9.7%	-4.0%	-9.9
NS(=O)(=O)c1ccc(CCNC(=O)CSc2nnc3ccccn23)cc1	-3.9%	-1.8%	0.0%	u
CCCCCC(=O)Nc1cc(S(=O)(=O)N2CCOCC2)ccc1N1CCCCC1	-14.0%	x	0.0%	x
Cc1ccc(C(=O)NC(=S)NNC(=O)c2cccc([N+](=O)[O-])c2)cc1	-3.0%	-6.1%	-1.2%	x
